Screens deposited in PubChem BioAssay by several laboratories.
Hsc70 ATP site: Hsc70 inhibitors, probe displacement, primary screen, biochemical, fluorescence polarization (AID 568); Heat shock cognate 71 kDa protein (Homo sapiens); Hsc70 fluorescence polarization, probe displacement; higher % means a stronger effect; strong numbers were not always called active; one-dose displacement, % at 20 µM; IC50 in µM for titrated hits; 83,000 tested, under 10 active;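 active = displacement above 50% without optical interference and an IC50 on retest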;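 also: ATPase domain with a fluorescein-tagged ATP probe; 0% = vehicle and 100% = excess ADP; read after one hour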
MT1-MMP promoter: inhibitors of MT1-MMP promoter transcription, cell-based, luciferase reporter, luminescence (AID 618). calls from a first round at 10 µM; hits with a dose series show EC50 in µM. MT1-MMP promoter luciferase reporter cells, luminescence. 87,000 tested, 0.62% active;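 active = over half of the reporter light lost at 10 µM or EC50 under 50 µM; inactive = the rest and hits that failed the dose series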;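 also: actives suppress MT1-MMP promoter-driven transcription so potencies describe inhibitors; HT1080 fibrosarcoma cells; overnight exposure; toxic or luciferase-blocking compounds were not removed from the actives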
WNV protease inh: inhibitors of WNV NS2B-NS3 protease, primary screen, biochemical, fluorogenic substrate; fluorogenic substrate Ex360/Em465; active compounds read low; 65,000 tested, 0.18% active; z-score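 (tested at a level between 10 and 100 µM)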; Genome polyprotein (West Nile virus), P06935;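 active = z-score at -3 or under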;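 also: score is relative to mean and spread of the compound wells of a plate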
Target sequence (P06935 1371-1501 limits assumed): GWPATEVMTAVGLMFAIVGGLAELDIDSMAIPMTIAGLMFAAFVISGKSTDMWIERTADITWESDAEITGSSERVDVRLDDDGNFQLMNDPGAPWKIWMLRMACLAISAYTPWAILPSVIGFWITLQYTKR
Target sequence (P06935 1502-1679 limits assumed): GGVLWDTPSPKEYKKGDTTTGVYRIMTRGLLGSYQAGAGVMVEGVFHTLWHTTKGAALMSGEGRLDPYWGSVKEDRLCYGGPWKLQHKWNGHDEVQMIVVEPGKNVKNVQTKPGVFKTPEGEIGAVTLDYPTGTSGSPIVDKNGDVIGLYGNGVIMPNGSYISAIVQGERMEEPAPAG
Active calls of the source: *; i = inactive; x = no result given. Some of the compounds tested; the hit share may differ from the screen's.

SMILES | Hsc70 ATP site | MT1-MMP promoter | WNV protease inh
CC(=O)c1c(C)[nH]c(C(=O)Nc2cc(C)ccc2C)c1C | 4.8% | i | -0.71
COC(=O)c1ccc(OC(=O)c2ccc(OC)c(OC)c2)c(OC)c1 | -1.4% | i | -0.03
COC(=O)Cn1cnc2c(C#N)c3n(c2c1=O)CCCCC3 | -3.4% | i | 0.6
CCn1c(COc2ccccc2)nnc1SCC(=O)NC1CCCCC1 | -3.8% | i | 0.3
Cc1ccccc1-c1cc2c(nn1)-c1ccccc1C2=O | 2.7% | i | x
COCCSc1ccccc1C(=O)Nc1nnc(COC)s1 | -5.3% | i | 0.02
Fc1ccccc1OCCCN1CCOCC1 | 1.6% | i | -0.03
C=CCn1c(SCC(=O)NC(=O)NCCC)nnc1C1CCCCC1 | 0.5% | i | x
COc1cc(-c2nc(Cc3ccccc3Cl)no2)cc(OC)c1OC | -7.3% | i | -0.56
O=C(N(Cc1ccccc1)c1ccccn1)C12CC3CC(CC(C3)C1)C2 | -2.5% | i | x
c1ccc(CCCNc2ncccn2)cc1 | -2.3% | i | x
Cc1cccc(N(C)S(=O)(=O)c2cccc3nsnc23)c1 | -4.3% | i | -0.78
Cc1cc2c(c(=O)n1CCCn1ccnc1)C(c1ccco1)C(C#N)=C(N)O2 (stereo unspecified) | 1.2% | i | 0.07
CCCCCN(C(=O)NC(=O)NC(C)CC)S(C)(=O)=O (stereo unspecified) | -0.3% | i | 0.87
COCCN1CN(S(=O)(=O)c2ccccc2)c2nc3ccccc3nc21 | 10.4% | i | -0.43
CC(C)CSc1ncnc2c1oc1nc3c(cc12)COC(C)(C)C3 | 3.1% | i | x
Cc1ccc(-n2nnnc2-c2cnn(-c3cccc(F)c3)c2C(F)(F)F)cc1 | 4.0% | i | x
O=C(CN1C(=O)C2(OCCO2)c2ccccc21)c1ccc(Cl)cc1 | -2.6% | i | -0.62
O=C1OCCC1S(=O)(=O)c1ccc2ccccc2c1 (stereo unspecified) | -5.3% | i | 0.61
CC1CCC/C(=N/Nc2ccc([N+](=O)[O-])cc2[N+](=O)[O-])C1 (stereo unspecified) | 1.7% | i | x
Cc1ccc(-c2nc3cc(C)ccc3o2)cc1 | 1.4% | 2.32µM* | -0.6
O=C(COc1ccc(S(=O)(=O)N2CCCCC2)cc1)NCc1ccncc1 | -2.7% | i | -0.93
COc1ccc(OC)c(C2C(C#N)=C(N)Oc3c2c(C)nn3-c2cccc(Cl)c2)c1 (stereo unspecified) | 4.5% | i | 0.26
O=C(NC1CCCC1)C1CC1c1ccccc1 (stereo unspecified) | -12.3% | i | -0.11
OC(COc1ccc(Cl)cc1)CN1C2=NCCCN2c2ccccc21 (stereo unspecified) | 4.1% | i | 0.2
CCc1ccccc1NC(=O)CSc1nnc([C@@H](N)Cc2ccccc2)o1 | 5.0% | i | -0.04
COc1ccc(C(O)C(CN2CCOCC2)c2ccccc2)cc1 (stereo unspecified) | 0.8% | i | -0.54
Cc1cnc(-c2nnc(N(C)C(=O)c3cnccn3)s2)cn1 | 1.2% | i | -0.87
O=C(Cc1coc(-c2ccc(F)cc2)n1)N1CCOCC1 | -0.2% | i | 0.99
CCCSc1nc(N2CCOCC2)c2c(c1C#N)CCCC2 | -0.7% | i | 0.27
O=C1Nc2ccccc2C(O)(C(=O)NCc2ccco2)N1c1ccccc1 (stereo unspecified) | 5.1% | i | -0.81
CC(C)(C)SCCNC(=O)c1ccc(NS(C)(=O)=O)cc1 | -8.1% | i | 0.07
COc1ccc(CNC(=O)c2cc(-n3cnnc3)ccc2Cl)cc1 | -1.9% | i | -1.37
CCOC(=O)c1oc2ccc(CNC3CCCCC3)c(Cl)c2c1C | 3.1% | i | x
COC(=O)c1ccccc1NC(=O)CS(=O)(=O)Cc1nc(-c2ccc(C)cc2)oc1C | -1.9% | i | -0.87
Cc1ccc(/C=C/C2=NN(Cc3ccccc3)C(=O)CC2)cc1 | 8.2% | i | x
CSc1nnc(-c2nnc(SC)n2-c2ccccc2)n1-c1ccccc1 | 2.4% | i | -0.28
COc1ccccc1N1CCN(C(=O)c2cc(-c3ccc(C)cc3)on2)CC1 | -2.6% | i | 0.8
O=C(N/N=C/c1ccc(O)c(O)c1O)/C(=C/c1ccc([N+](=O)[O-])cc1)NC(=O)c1ccccc1 | 0.1% | i | x
O=c1[nH]c(N2CCOCC2)nc2ncn(Cc3ccccc3)c12 | -4.8% | i | -0.15
COc1cccc(CNC(=O)C2CCN(S(=O)(=O)c3c(C)nn(C)c3C)CC2)c1 | -1.9% | i | 0.4
Cc1cc(NC(=O)CSc2nnc(C)c(=O)[nH]2)no1 | -1.8% | i | -0.26
O=C(CC1CCCC1)OCn1nnc2ccccc2c1=O | -0.9% | i | 0.02
CCO/C=C1\C(=O)N(c2ccccc2)C(=O)c2ccccc21 | 9.4% | i | 1.13
COc1ccc2nc3oc(C(=O)N4CCN(c5cccc(C(F)(F)F)c5)CC4)cc3cc2c1 | -5.3% | i | -0.32
C=CCNc1nc(NCCN2CCOCC2)nc(OC)n1 | -4.9% | i | -0.72
COc1cc2[nH]cc(C(=O)NCc3cccs3)c(=O)c2cc1OC | 3.5% | i | x
O=C(c1nc2nc(-c3ccccc3)cc(C(F)(F)F)n2n1)N1CCOCC1 | -1.8% | i | 1.35

Some of the entries so far, as labelled records.
SMILES: O=C(CC1CCCC1)OCn1nnc2ccccc2c1=O
  Hsc70 ATP site = -0.9%; MT1-MMP promoter = i; WNV protease inh = 0.02
SMILES: CCO/C=C1\C(=O)N(c2ccccc2)C(=O)c2ccccc21
  Hsc70 ATP site = 9.4%; MT1-MMP promoter = i; WNV protease inh = 1.13

Next structures.
SMILES | Hsc70 ATP site | MT1-MMP promoter | WNV protease inh
COc1cccc(NC(=O)Nc2nnc(-c3ccccc3SCc3ccccc3)s2)c1 | 0.1% | i | x
Cc1ccc(CNC(=O)CSc2nc3ccccc3c(=O)n2CCCO)cc1 | 110.6% | i | 0.64
COc1ccc(CCNC(=O)Cc2cc(=O)[nH]c(=O)[nH]2)cc1OC | 1.5% | i | 1.5
COc1cccc(C(=O)Nc2cccc(NC(C)=O)c2)c1 | 2.7% | i | 1.04
O=C(NCC1CCCO1)[C@@H]1CSC2c3ccccc3C(=O)N21 (stereo partly specified) | -6.5% | i | -0.16
CCNC(=O)NC(=O)C(C)OC(=O)c1cccnc1SC (stereo unspecified) | 6.4% | i | 0.28
O=C(C1CCCN(S(=O)(=O)c2cccc3nsnc23)C1)N1CCc2ccccc2C1 (stereo unspecified) | -6.6% | i | -0.65
CCC1(C)Cc2ccccc2C(Nc2c(C)n(C)n(-c3ccccc3)c2=O)=N1 (stereo unspecified) | -5.7% | i | x
Cc1c(NC(=O)C(C)c2ccc(CC(C)C)cc2)c(=O)n(-c2ccccc2)n1C (stereo unspecified) | 2.5% | i | x
O=C(NCCCN1CCCC1)c1ccc(CS(=O)(=O)c2ccc(Br)cc2)o1 | 2.8% | i | 0.64
O=C(Nc1ccc(S(=O)(=O)N2CCN(Cc3ccccc3)CC2)cc1)c1cnccn1 | 0.0% | i | 0.61
CS(=O)(=O)c1ccc(Cl)c(S(=O)(=O)NCc2ccccc2)c1 | 4.4% | i | -0.25
CCC(=O)N1CCc2cc(S(=O)(=O)CCC(=O)Nc3nc(C)cs3)ccc21 | 10.6% | i | 0.33
O=C(O)CCN1CCOCC1 | 1.2% | i | 1.5
CCn1nc(NC(=O)c2ccco2)c2cc3ccccc3nc21 | -1.6% | i | 0.08
O=C(Nc1ccccc1N1CCN(C(=O)c2ccc(Cl)cc2)CC1)c1ccc(Br)cc1 | -12.0% | i | x
COC(=O)C1=C(O)C(C(=O)OC)C(c2ccc(C)cc2)C(C#N)(C#N)C1c1ccc(C)cc1 (stereo unspecified) | 2.6% | i | x
N#CC1=C(N)S[C@H](C(=O)C23CC4CC(CC(C4)C2)C3)[C@H]1c1ccncc1 | -3.8% | i | 0.22
O=C(c1ccco1)N1CCN(C(=O)c2cc3sccc3n2Cc2ccccc2)CC1 | -0.3% | i | -1.15
Cc1cc(C)c2cc(CN(CCO)C(c3nnnn3Cc3ccc(F)cc3)C(C)C)c(=O)[nH]c2c1 (stereo unspecified) | -3.6% | i | 1.55
COc1ccc2nc(NC(=O)C3CCN(S(=O)(=O)c4cccc5nsnc45)CC3)sc2c1 | 6.3% | i | -0.17
NC(=O)C1CCN(CCC(=O)Nc2cccc(Cl)c2)CC1 | -0.3% | i | -0.42
CCn1c(CNC(=O)c2cccc(C)c2)nnc1SCC(=O)Nc1cccc(OC)c1 | 2.4% | i | 0.34
Cc1ccccc1-c1ccc(Nc2ccc(C(=O)N3CCOCC3)cc2)nn1 | 0.9% | i | -0.46
CCOc1cc([C@H]2[C@@H]3CCCC[C@]3(O)CCN2CC(=O)NCc2ccco2)ccc1O | 0.0% | i | 0.05
Cc1cccc(C)c1NC(=O)CSc1nnc(CCCCCNC(=O)OC(C)(C)C)o1 | -4.2% | i | -0.15
COC(=O)Nc1sc(C(=O)N(C)C)c(C)c1C(=O)OC | 0.8% | i | x
O=C(CCn1cccc1)Nc1ccccc1F | -11.6% | i | -1.18
Cc1cccc(OCCSc2nnc(-c3ccoc3C)n2C)c1 | -0.4% | i | 0.4
CC(C)CCn1cnc2c1c(=O)n(C)c(=O)n2C | 0.5% | i | -0.23
COc1ccccc1C(=O)Nc1cc2c(ccc3ccccc32)oc1=O | -1.2% | i | x
CNc1sc(C(=O)c2ccccc2F)c(N)c1-c1nc2ccccc2s1 | -6.1% | i | x
CSCCc1nc(SCC(=O)Nc2nnc(C)s2)[nH]c1C | 5.6% | i | 0.3
CC1CCCN(C(=O)Cc2ccc(F)cc2)C1 (stereo unspecified) | 2.0% | i | -1.08
O=C(N1CCOCC1)N1CCN(c2ccccc2F)CC1 | -0.9% | i | 0.58
O=C(c1nc2ncccn2n1)N1CCN(c2ccc(F)cc2)CC1 | 1.4% | i | 0.35
COc1cc(-c2nnc(CSc3nc4ccccc4s3)o2)cc(OC)c1OC | -5.4% | i | 1.02
COc1cccc(C(=O)Nc2cccc(-c3nc4ncccc4o3)c2C)c1 | -3.2% | i | -0.61
Cc1ccc(-c2nnc(SCC(=O)Nc3sc(C)c(C)c3C#N)n2C)cc1 | 6.4% | i | x
CCN(CC)S(=O)(=O)c1ccc(NC(=O)Cn2c(=O)sc3ccccc32)cc1 | 1.9% | i | -2.12
Cc1ccccc1-c1nnc(-c2ccc(Br)cc2)o1 | 0.6% | i | 0.27
CCOc1ccc2nc(SCC#N)c(C#N)cc2c1 | -0.6% | i | 1.36
Cc1cn(C(=O)c2cccc(Br)c2)c(C)n1 | -2.6% | i | 1.09
Cc1ccc(-c2nnc(CSc3nc(C(C)C)nc4sc(C)c(C)c34)o2)cc1 | -1.6% | i | x
COc1ccc(C(c2nnnn2C2CCCC2)N2CCC(C)CC2)c(OC)c1 (stereo unspecified) | 7.9% | i | -0.04
COc1ccccc1NC(=O)C1=C(C)NC(=O)NC1c1cccc(OC)c1OC (stereo unspecified) | 0.4% | i | 1.36
O=C(CCCCCN1C(=O)CCC1=O)NCc1ccccc1 | -0.1% | i | 0.01
Oc1ccc(Cl)cc1C1=NCCNC(C(F)(F)C(F)F)=C1 | 1.3% | i | x
CCOC(=O)c1cnc2nc(NCc3ccc(OC)c(OC)c3)[nH]n2c1=O | -6.0% | i | -1.27
N#CCCn1c(SCC(=O)c2c[nH]c3ccccc23)nc2ccccc21 | -6.2% | i | -0.9
COc1ccccc1N1CCN(C(=O)c2c(C)cc(=O)oc2C)CC1 | -4.5% | i | -0.78
COC(=O)c1[nH]c2cccc(Cl)c2c1NC(=O)CN(C)C1CCCCC1 | -5.1% | i | 0.6
Cc1ccc(-n2c(COc3c(C)cccc3C)nnc2SCC(=O)Nc2nccs2)cc1 | 0.1% | i | x
c1ccc(-c2nc(CSc3nnc(-c4cccs4)o3)cs2)cc1 | -7.7% | i | -0.94
CCCCCCNC(=O)C(C(=O)OCC)C1CCCCC1 (stereo unspecified) | 3.3% | i | -0.76
CCCCC1CCC(/C(N)=N/O)CC1 (stereo unspecified) | -4.1% | i | 1.19
Cc1cc2cc(CCNC(=O)C(C)C)c(=O)[nH]c2cc1C | 1.2% | i | 0.2
CCCCNC(=O)Nc1cc(C(=O)OC)ccc1C | -3.1% | i | -0.68

4 entries from above, reformatted:
Molecule	Hsc70 ATP site	MT1-MMP promoter	WNV protease inh
Cc1cccc(N(C)S(=O)(=O)c2cccc3nsnc23)c1	-4.3%	i	-0.78
Cc1cc2c(c(=O)n1CCCn1ccnc1)C(c1ccco1)C(C#N)=C(N)O2 (stereo unspecified)	1.2%	i	0.07
CCCCCN(C(=O)NC(=O)NC(C)CC)S(C)(=O)=O (stereo unspecified)	-0.3%	i	0.87
COCCN1CN(S(=O)(=O)c2ccccc2)c2nc3ccccc3nc21	10.4%	i	-0.43

A draw from above in order of count of non-hydrogen atoms, rising.
SMILES | Hsc70 ATP site | MT1-MMP promoter | WNV protease inh
Cc1cn(C(=O)c2cccc(Br)c2)c(C)n1 | -2.6% | i | 1.09
CS(=O)(=O)c1ccc(Cl)c(S(=O)(=O)NCc2ccccc2)c1 | 4.4% | i | -0.25
COc1ccc(C(O)C(CN2CCOCC2)c2ccccc2)cc1 (stereo unspecified) | 0.8% | i | -0.54
